Sa RN4220 lethal: S. aureus RN4220 growth inhibition | OD600, 16 h | inhibition, % (concentration not given with the values) | 330,000 tested, 0.33% active | AID 1259311;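 active means z-score of -3 or lower and OD600 up to 0.18 on both plates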;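 further: plate controls were untreated cells for no effect and reference antibiotic for full effect; stock transfer was 100 nL into about 80 µL; one replicate is shown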
BJeLR lethal: BJeLR cell viability loss; BJeLR (HRASV12) viability, CellTiter-Glo ATP luminescence, 48 h; reference of the scale not given here; inhibition, % (no concentration beside the values); 300,000 tested, 0.17% active; AID 1554;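 active means replicate mean above 50%; inconclusive means above 50% but judged a plate artefact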;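 further: 50 nL library stock added to about 25 µL; numbers are from one replicate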
Mtb hypoxia rep: reduces hypoxia-regulated biosensor signal in M. tuberculosis; M. tuberculosis hypoxia-regulated fluorescent reporter, fluorescence; fluorescence inhibition, % (no concentration beside the values); 300,000 tested, 0.1% active;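 active means 35 to 45% if threefold the growth effect, above 45% if 1.5-fold the growth effect; inactive means the rest, general growth blockers included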;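 further: wells of about 50 µL received 100 nL stock; 0% = vehicle wells and 100% = reference inhibitor wells; whole bacteria with a GFP reporter of the hypoxia response; strong numbers were not always called active; many hits fall short of the cut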
PrP 5UTR inh: inhibition of PrP 5' UTR reporter expression; cell-based PrP 5' UTR mRNA reporter, plate reader; 340,000 tested, 0.35% active; inhibition, % (test concentration not listed);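 active means every replicate at 50% or more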;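 further: 0 = median of the neutral control wells; tested in H4 reporter cells; numbers are from one replicate; inactives centre near -14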
Autofluor counter: compound fluorescence in toxin protease inhibitor counterscreen | AID 624483 | compound autofluorescence counterscreen, microsphere flow cytometry; active compounds read high | 360,000 tested, 3.1% active | fluorescence intensity (concentration not given with the values);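 active means at least 3 SD above the mean of all compounds, about 16000 in these data; inconclusive means too few beads counted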;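 further: 100 nL of 1 mM stock went into each well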
Sa ugtP lethal: kills S. aureus RN4220 lacking UgtP. 330,000 tested, 0.54% active. growth inhibition, % (test concentration not listed). S. aureus RN4220 ugtP deletion, OD600 growth, 16 h; some inactives read as strong as hits;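 active means z-score under -3 and OD600 up to 0.15 on both plates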;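 further: plate controls were untreated wells for no effect and antibiotic for full effect; wells of about 80 µL received 100 nL stock; the first replicate is given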
Mtb hypoxia rep growth: second read-out of Mtb hypoxia rep, no call of its own (marks repeat the call); growth inhibition, %; measured here: M. tuberculosis growth (absorbance);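 0% = vehicle and 100% = reference antibiotic; read after six days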
An asterisk follows results filed as active; ? = inconclusive; nt = not tested or not shown.

Start of the listing, in advance (4 entries):
| compound | Sa RN4220 lethal | BJeLR lethal | Mtb hypoxia rep | Mtb hypoxia rep growth | PrP 5UTR inh | Autofluor counter | Sa ugtP lethal |
| --- | --- | --- | --- | --- | --- | --- | --- |
| O=C(Cc1ccccc1)NCC1CCCO1 (stereo not drawn) | 3.3 | -4 | 8 | 16 | -55 | 7625 | 2 |
| COC(=O)C(=NNc1c(C)n(C)n(-c2ccccc2)c1=O)C(=O)OC | 5.4 | 4 | 7 | 4 | -5 | 1954 | 9 |
| Cc1cc(NC(=O)Cn2cnc3c(nnn3-c3ccc(C)c(Cl)c3)c2=O)no1 | 5.2 | 0 | 3 | 3 | -14 | 4423 | 0 |
| O=C(NCC1CCCO1)c1cccc(Br)c1 (stereo not drawn) | 3.7 | 6 | 20 | 23 | -10 | 16290* | 4 |

The listing, from the start:
| compound | Sa RN4220 lethal | BJeLR lethal | Mtb hypoxia rep | Mtb hypoxia rep growth | PrP 5UTR inh | Autofluor counter | Sa ugtP lethal |
| --- | --- | --- | --- | --- | --- | --- | --- |
| O=C(Cc1ccccc1)NCC1CCCO1 (stereo not drawn) | 3.3 | -4 | 8 | 16 | -55 | 7625 | 2 |
| COC(=O)C(=NNc1c(C)n(C)n(-c2ccccc2)c1=O)C(=O)OC | 5.4 | 4 | 7 | 4 | -5 | 1954 | 9 |
| Cc1cc(NC(=O)Cn2cnc3c(nnn3-c3ccc(C)c(Cl)c3)c2=O)no1 | 5.2 | 0 | 3 | 3 | -14 | 4423 | 0 |
| O=C(NCC1CCCO1)c1cccc(Br)c1 (stereo not drawn) | 3.7 | 6 | 20 | 23 | -10 | 16290* | 4 |
| COC(=O)c1ccc(S(=O)(=O)N2CCN(CCO)CC2)n1C | -5.5 | -9 | -12 | 0 | 2 | nt | -9 |
| COc1ccc(CNc2nc3c(c(=O)n(Cc4ccc(F)cc4)c(=O)n3C)n2C)cc1 | -3.0 | 2 | 0 | 21 | -20 | 21752* | -6 |
| COC(=O)c1ccccc1NC(=O)N1CCN(S(=O)(=O)c2ccc(Cl)cc2)CC1 | 3.2 | -1 | -3 | 3 | -7 | 9609 | -1 |
| O=C(O)c1cc(S(=O)(=O)NCCOc2ccccc2)ccc1Cl | 3.6 | nt | 3 | 5 | -13 | ? | 4 |
| O=[N+]([O-])c1cc(-c2csc(NC(CO)c3nc4ccccc4n3CCOCCO)n2)ccc1Cl (stereo not drawn) | 3.9 | -2 | 5 | 5 | -9 | 2915 | -33 |
| O=C(NCC(=O)N1CC(O)CC1C(=O)N1CC(O)CC1C(=O)OCc1ccccc1)OCc1ccccc1 (stereo not drawn) | 7.0 | -1 | 5 | 6 | -31 | 4365 | 5 |
| COc1ccc(C(=O)Nc2cc(C(=O)c3ccccc3)c(C)oc2=O)cc1 | 2.0 | 3 | 1 | -2 | -18 | 10513 | -1 |
| O=C(Nc1cc(C(F)(F)F)ccc1Cl)c1ccc(NC(=O)C(F)(F)F)cc1 | 1.0 | -9 | 4 | 0 | -19 | 2087 | -8 |
| O=C1CSC(=S)N1c1ccc(O)cc1 | 6.9 | -6 | -3 | 3 | 5 | nt | 4 |
| CC(C)C(=O)Nc1ccc2c(c1)C(=O)NC2=O | 9.0 | 2 | 2 | -1 | -13 | 5552 | -1 |
| CCOC(=O)C(CCc1ccccn1)c1ccccc1 (stereo not drawn) | 4.5 | nt | 8 | 3 | -43 | 3189 | -2 |
| CC1CCc2cc(F)ccc2N1C(=O)C1(C)CC1(Cl)Cl (stereo not drawn) | 1.8 | 7 | -1 | -4 | 0 | 15451 | -8 |
| COC(=O)c1cc(S(=O)(=O)NCc2ccccc2)c[nH]1 | 3.9 | 18 | 14 | 8 | -9 | 5777 | 11 |
| COc1ccc(NC(=O)CN2C(=O)c3ccccc3S2(=O)=O)cc1OC | 3.1 | -8 | -4 | -1 | -3 | 4307 | 1 |
| CC(=O)c1ccc(N(C(=O)CNC(=O)c2cccs2)C(C(=O)NCC2CCCO2)c2ccccc2)cc1 (stereo not drawn) | 6.0 | 7 | -1 | -2 | -16 | 5707 | 2 |
| CC(=O)c1cccc(OCc2cc(C(=O)N(C)CCC3CCOCC3)no2)c1 | 3.9 | 8 | 2 | 5 | -45 | 5503 | 0 |
| C/C(=C\c1cccc(Br)c1)C(=O)c1c(C)cc(C)[nH]c1=O | 2.9 | -11 | -6 | 6 | -4 | 3805 | -3 |
| Cc1ccc(NCc2nnc(SCC(=O)Nc3cc(C)on3)n2C)cc1 | -0.4 | -3 | nt | nt | -16 | 3491 | 2 |
| COc1ccc(C2C=CCN(C(=O)c3ccccc3)CC(=O)N2Cc2ccc(F)cc2)cc1 (stereo not drawn) | 8.9 | nt | 2 | -5 | nt | nt | 4 |
| O=c1cc(CN2CCN(c3ccccc3F)CC2)c2cc3c(cc2o1)CCCC3 | 3.7 | -13 | 1 | -3 | -10 | 11853 | -1 |
| NS(=O)(=O)c1ccc(CCNC(=O)c2nc(CS(=O)(=O)c3ccc(Cl)cc3)no2)cc1 | 4.9 | 8 | -1 | 1 | -14 | 5645 | 6 |
| CSc1nc(Oc2ccc3ccccc3c2)c2ccccc2n1 | -3.8 | -6 | nt | nt | -6 | 2674 | 14 |
| C#Cc1ccc([C@H]2C=C(C(=O)OCC=C)O[C@@H](OCCCCO)C2)cc1 | nt | 7 | nt | nt | -27 | 2768 | nt |
| COc1ccc(Nc2nc(NCc3ccco3)nc(N/N=C/c3ccccc3F)n2)cc1 | nt | 8 | nt | nt | -43 | 2107 | nt |
| COc1ccc(N2CCN(C(CNC(=O)C(C)C)c3ccc4c(c3)OCO4)CC2)cc1 (stereo not drawn) | 3.4 | -3 | -8 | -6 | -33 | 5410 | 11 |
| CCCCCCC1C(=NO)CCC1C(=O)OC (stereo not drawn) | 5.5 | nt | 4 | 0 | nt | nt | -2 |
| CCOC(=O)C1CCN(C(=O)COc2ccc3c(C)cc(=O)oc3c2)CC1 | 0.8 | -4 | 3 | -2 | -10 | 4829 | 9 |
| CC(=O)c1ccc(S(=O)(=O)N(C)CC(=O)NCc2ccco2)cc1 | 0.8 | nt | -2 | 12 | -7 | 3825 | -2 |
| COC(=O)CN1CCN(C(=O)c2ccco2)CC1 | 2.4 | 4 | 0 | 6 | -9 | 6532 | 4 |
| CCOC(=O)N1CCN(C(=O)c2ccc(OCC)cc2)CC1 | -0.9 | 0 | -4 | 4 | -23 | 3572 | 2 |
| COc1ccc(-c2cnc3n2CCCCC3)cc1 | 5.2 | -2 | 6 | 12 | -3 | 3877 | 4 |
| COc1ccc(C(=O)COC(=O)CCN2C(=O)C3C4CCC(C4)C3C2=O)cc1 (stereo not drawn) | 4.8 | 2 | 4 | 5 | -13 | 2729 | 6 |
| CCc1cc(CNC(=O)C2CCC(=O)N(CCc3cccc(F)c3)C2)on1 (stereo not drawn) | 3.8 | -2 | 7 | -3 | -8 | 5853 | 5 |
| COCCN1C(=O)C(=O)/C(=C(/O)c2ccc(S(=O)(=O)N3CCOCC3)cc2)C1c1cccc(OC)c1 (stereo not drawn) | 2.4 | 4 | -7 | -8 | -20 | 4468 | 3 |
| O=C(O)c1cnn2c(C(F)F)cc(C(F)F)nc12 | -0.9 | -4 | nt | nt | -7 | 4616 | 9 |
| Cc1ccc(S(=O)(=O)C(C#N)c2nc3ccccc3nc2N2CC(C)OC(C)C2)cc1C (stereo not drawn) | 3.3 | 13 | 3 | 2 | -1 | 17403* | -23 |
| CCOC(=O)N1CCN(C(=O)C2c3cc(OC)c(OC)cc3C(=O)N3CCc4ccccc4C23)CC1 (stereo not drawn) | -0.5 | 7 | nt | nt | -12 | 4491 | 2 |
| COc1ccc(S(=O)(=O)Nc2ccncc2)c(C)c1C | nt | 18 | nt | nt | -28 | 4363 | nt |
| Cc1cc(C)n2nc(C(=O)OCC(=O)Nc3ccc4c(c3)OCCO4)nc2n1 | 2.2 | nt | 3 | 2 | -7 | 6769 | 6 |
| COc1ccc(CCNc2cc(N3CCN(C(=O)c4ccccc4OC)CC3)ccc2[N+](=O)[O-])cc1OC | 7.1 | 11 | 10 | -3 | -21 | 4876 | 16 |
| CCCc1cc(=O)oc2cc(OCc3ccc(C(=O)O)cc3)ccc12 | 3.8 | 10 | 18 | 8 | -8 | 3917 | -3 |
| CCc1cccc(NC(=O)CCc2nc(-c3cccs3)no2)c1 | 2.2 | 6 | 3 | -3 | -21 | 5753 | 5 |
| O=C(NCC1CCCO1)c1cccc(S(=O)(=O)N2CCOCC2)c1 (stereo not drawn) | 2.7 | 0 | 2 | 6 | -12 | 5988 | 6 |
| COc1cc(NC(=S)NC(=O)c2ccco2)ccc1NC(=O)C(C)C | nt | -5 | nt | nt | -16 | 4451 | nt |
| Cc1cccc(/C=N/NC(=O)c2cccc(Cl)c2)n1 | nt | 9 | nt | nt | -3 | 2977 | nt |
| CN(C)C(=N)c1n[nH]nc1SCc1ccc(Cl)c(Cl)c1 | 6.9 | -6 | 7 | -4 | -16 | 4273 | 5 |

Additional results.
| compound | Sa RN4220 lethal | BJeLR lethal | Mtb hypoxia rep | Mtb hypoxia rep growth | PrP 5UTR inh | Autofluor counter | Sa ugtP lethal |
| --- | --- | --- | --- | --- | --- | --- | --- |
| COc1cccc(C2CC(c3ccccc3Cl)n3ncnc3N2)c1 (stereo not drawn) | 11 | -6 | 11 | 10 | -16 | 3343 | -1 |
| Cc1[nH]n(-c2ccccc2)c(=O)c1/C=N/c1nn[nH]n1 | nt | 8 | nt | nt | -14 | 4529 | nt |
| O=C(Nc1cccc(OCC(=O)N2CCOCC2)c1)c1ccc(C(F)(F)F)cc1 | 3.0 | -10 | 1 | 1 | -8 | 3643 | 2 |
| CN1CCN(c2nc3nonc3nc2N2CCN(C)CC2)CC1 | -1.8 | 3 | -1 | -2 | -18 | 3344 | 11 |
| COc1ccc(C=NNC(=O)c2ccncc2)cc1[N+](=O)[O-] | -1.6 | nt | 5 | 4 | nt | nt | 9 |
| Cc1ccc(S(=O)(=O)N2CCOCC2)cc1NC(=O)COC(=O)COc1cccc2c1OC(C)(C)C2 | 1.3 | -9 | 6 | 7 | -46 | ? | -4 |
| CN(CC(=O)Nc1ccccc1Cl)C(=O)COC(=O)c1ccc(Cl)nc1 | -0.2 | -2 | 5 | -6 | -24 | 5778 | 4 |
| CC(=C\c1ccccc1)/C=C1/SC(=S)N(C(C(=O)O)C(C)C)C1=O (stereo not drawn) | 13 | -3 | 3 | 1 | -10 | 1999 | 0 |
| CCc1ccccc1N(C(=O)CNC(=O)c1ccco1)C(C(=O)NC1CCCC1)c1cccnc1 (stereo not drawn) | -0.5 | -5 | -5 | 8 | -11 | 3662 | 1 |
| COc1cc(C2=NOC(C(=O)N3CCN(c4ccc(F)cc4)CC3)C2)cc(OC)c1OC (stereo not drawn) | 5.2 | -13 | 2 | 2 | 4 | 17355* | 6 |
| c1ccc(-c2noc(C3CCCCC3)n2)nc1 | 5.1 | -2 | nt | nt | -77 | 3728 | 9 |
| Cc1ccc(-c2nnn(CC(=O)N(c3ccc4c(c3)OCCO4)C(C(=O)NCC3CCCO3)c3ccc(F)cc3)n2)o1 (stereo not drawn) | 1.8 | -3 | -2 | -8 | -24 | 3516 | 0 |
| COc1ccc(C=C2c3ccccc3C(=O)c3ccccc32)c(OC)c1 | nt | 53* | nt | nt | 46 | 4419 | nt |
| CSCCC(NS(=O)(=O)c1ccccc1F)C(=O)NCC(c1ccco1)N(C)C (stereo not drawn) | 3.0 | nt | 5 | 7 | -25 | 3383 | 3 |
| O=C(CN(Cc1ccccc1)C(=O)CCC(=O)Nc1ccccn1)NCCc1ccccc1 | 1.8 | -10 | -1 | 5 | -18 | 3446 | 9 |
| CC1c2[nH]c3ccccc3c2C[C@H]2C(=O)N(CCCN(C)C)CC(=O)N12 (stereo partly drawn) | 4.8 | 1 | 11 | 3 | -16 | 2838 | 11 |
| COc1cc(/C=N/O)ccc1OCc1ccc([N+](=O)[O-])cc1 | nt | -1 | nt | nt | -87 | 2135 | nt |

Random excerpt: 3 compounds from above
| compound | Sa RN4220 lethal | BJeLR lethal | Mtb hypoxia rep | Mtb hypoxia rep growth | PrP 5UTR inh | Autofluor counter | Sa ugtP lethal |
| --- | --- | --- | --- | --- | --- | --- | --- |
| CC1c2[nH]c3ccccc3c2C[C@H]2C(=O)N(CCCN(C)C)CC(=O)N12 (stereo partly drawn) | 4.8 | 1 | 11 | 3 | -16 | 2838 | 11 |
| COc1ccc(S(=O)(=O)Nc2ccncc2)c(C)c1C | nt | 18 | nt | nt | -28 | 4363 | nt |
| O=C(O)c1cnn2c(C(F)F)cc(C(F)F)nc12 | -0.9 | -4 | nt | nt | -7 | 4616 | 9 |
